High-throughput results: PubChem BioAssay, ICCB-Longwood Screening Facility, Harvard Medical School
Choline anaer gr – inhibitors of anaerobic choline-dependent gram-negative bacterial growth. calls only. Gram-negative bacterium anaerobic choline minimal medium, absorbance growth; hits give low values; many inactives read as strong as hits in the columns shown. actives 0.2% (n = 55,000);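 active means growth z-score on choline under -2 at 7 or 20 h with little or no fall on glycerol, limits in tiers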;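 further: stock transfer was 300 nL into about 50 µL; the organism is E. coli; final concentration not given here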
Choline anaer gr early – also measured in Choline anaer gr; calls as there; z-score; measured here: choline growth z-score, timepoint 1;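 score of optical density at 7 h as mean of two plates; lower means less growth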
* hit, by the source's call.

What do the screens show for `Cc1csc(-c2cc(S(=O)(=O)NCCN3CCC(C)CC3)cn2CC(=O)N2CCCCC2)n1`?
Choline anaer gr: inactive; Choline anaer gr early: -1.26

Results for Cc1cccc(-n2ncnc2-c2cc3c(n(-c4ccccc4)c2=O)CC(C)(C)CC3=O)c1C ?
Choline anaer gr: inactive; Choline anaer gr early: 0.22

What do the screens show for `Cc1ccc(S(=O)(=O)N2CCC(c3nc4cc(C(=O)N5CCCC5)ccc4n3C3CCCCC3)CC2)cc1`?
Choline anaer gr: inactive; Choline anaer gr early: -0.57

Results for COc1ccc(-c2cc(C(F)(F)F)n3ncc(C(=O)NCc4c(C)nn(C)c4C)c3n2)cc1OC ?
Choline anaer gr: inactive; Choline anaer gr early: 3

How did Cc1cccc(N2CCN(C(=O)C3CCN(c4ncnc5c4oc4ccccc45)CC3)CC2)c1C do in these assays?
Choline anaer gr: inactive; Choline anaer gr early: 0.6

How did CC1CCN(S(=O)(=O)c2cc(C(=O)N3CCN(c4cccc(Cl)c4)CC3)n(C)c2)CC1 do in these assays?
Choline anaer gr: inactive; Choline anaer gr early: 1.08

How did O=C(CSc1n[nH]c2nc3ccccc3n12)N1CCc2ccccc21 do in these assays?
Choline anaer gr: inactive; Choline anaer gr early: -0.73

How did CCCc1nnc(NC(=O)c2cc(=O)c3cc(Br)ccc3o2)s1 do in these assays?
Choline anaer gr: inactive; Choline anaer gr early: 0.25

What do the screens show for `CCOc1ccccc1N1CCN(C(=O)Cn2ccc3c(c(C)nn3-c3ccccc3)c2=O)CC1`?
Choline anaer gr: inactive; Choline anaer gr early: -0.48

Results for Nc1ncnc2nc(SCC(=O)Nc3ccc(Br)cc3)[nH]c12 ?
Choline anaer gr: inactive; Choline anaer gr early: -0.71

How did Cc1nn(-c2nc3ccc(Br)cc3s2)c2c1C(c1ccc(F)cc1F)CC(=O)N2 (stereo unspecified) do in these assays?
Choline anaer gr: inactive; Choline anaer gr early: 1.11

How did Clc1ccccc1Nc1c2c(nc3ncnn13)CCC2 do in these assays?
Choline anaer gr: inactive; Choline anaer gr early: -0.31

Next section; it opens with the three that closed the last part.
Results for Nc1ncnc2nc(SCC(=O)Nc3ccc(Br)cc3)[nH]c12 ?
Choline anaer gr: inactive; Choline anaer gr early: -0.71

How did Cc1nn(-c2nc3ccc(Br)cc3s2)c2c1C(c1ccc(F)cc1F)CC(=O)N2 (stereo unspecified) do in these assays?
Choline anaer gr: inactive; Choline anaer gr early: 1.11

How did Clc1ccccc1Nc1c2c(nc3ncnn13)CCC2 do in these assays?
Choline anaer gr: inactive; Choline anaer gr early: -0.31

How did Cc1ccc(NC(=O)Nc2ncc(-c3ccccc3)n2C)cc1Cl do in these assays?
Choline anaer gr: inactive; Choline anaer gr early: 0.82

Results for CC1=C(c2ccc(F)cc2)S(=O)(=O)N(CC(=O)Nc2cc(F)ccc2F)C1=O ?
Choline anaer gr: inactive; Choline anaer gr early: 0.25

How did Cc1ccc(-c2nn3c(=O)cc(CN4CCN(C(=O)Nc5cc(C)cc(C)c5)CC4)nc3s2)cc1 do in these assays?
Choline anaer gr: inactive; Choline anaer gr early: 0.35

What do the screens show for `Cc1cc(N2CCC(C(=O)NC3CCCc4ccccc43)CC2)n2nc(-c3ccccc3)cc2n1` (stereo unspecified)?
Choline anaer gr: inactive; Choline anaer gr early: 0.59

Results for O=C(NC1CCCC1)c1ccc(OCc2nnc(C(=O)Nc3ccc(Cl)cc3)s2)cc1 ?
Choline anaer gr: inactive; Choline anaer gr early: 0.02

What do the screens show for `COc1ccccc1-c1noc(CCCC(=O)Nc2cccnc2)n1`?
Choline anaer gr: inactive; Choline anaer gr early: 0.31

Results for CC(C)NC(=O)C1CCCN(S(=O)(=O)c2ccc3c(c2)nnn3C(C)C)C1 (stereo unspecified) ?
Choline anaer gr: inactive; Choline anaer gr early: -1.07

Results for COc1ccccc1N1CCN(C(=O)c2sc3ncccc3c2-n2cccc2)CC1 ?
Choline anaer gr: inactive; Choline anaer gr early: -0.12

How did COc1cc(NC(=O)c2ccc(S(=O)(=O)c3ccc(Br)cc3)nc2)cc(OC)c1 do in these assays?
Choline anaer gr: inactive; Choline anaer gr early: 2.75

Results for O=C1c2ccccc2Sc2cc(-c3noc(-c4ccc5c(c4)OCO5)n3)ccc2N1C1CC1 ?
Choline anaer gr: inactive; Choline anaer gr early: 1.28

What do the screens show for `CCn1c(CCc2ccc(NS(=O)(=O)c3c(C)noc3C)cc2)nc2ccccc21`?
Choline anaer gr: inactive; Choline anaer gr early: 0.57

Results for CCOC(=O)C1CCN(C(=O)CSc2nccc3c2ccn3Cc2ccc(F)cc2)CC1 ?
Choline anaer gr: inactive; Choline anaer gr early: -1.14

Results for CCc1ccccc1NC(=O)Cn1c2ncccc2c(=O)n1-c1ccc(C)cc1 ?
Choline anaer gr: inactive; Choline anaer gr early: 1.3

What do the screens show for `CCOC(=O)c1[nH]c(C)c(CCC(=O)N2CCCC(C(=O)N3CCCC3)C2)c1C` (stereo unspecified)?
Choline anaer gr: inactive; Choline anaer gr early: -0.86

How did COCCCNC(=O)c1cc2cc(S(=O)(=O)N(C)C)ccc2n1Cc1ccncc1 do in these assays?
Choline anaer gr: inactive; Choline anaer gr early: 0.03

What do the screens show for `CC(C)CCNC(=O)CCCCn1c(=O)c2ccccc2n(CC(=O)Nc2ccccc2F)c1=O`?
Choline anaer gr: inactive; Choline anaer gr early: 0.83

What do the screens show for `O=C(O)c1cc(N2CCN(c3cccc(Cl)c3)CC2)nc2ccc(NC(=O)C3CC3)cc12`?
Choline anaer gr: inactive; Choline anaer gr early: -0.23

What do the screens show for `COc1ccccc1-c1noc(-c2ccc[nH]c2=O)n1`?
Choline anaer gr: inactive; Choline anaer gr early: 0.57

Results for CCCn1c(=O)[nH]c2c(C(=O)N3CCC(C(=O)OCC)CC3)snc2c1=O ?
Choline anaer gr: inactive; Choline anaer gr early: 0.32

Results for O=C1Nc2cc(C(=O)N3CCN(c4ccccn4)CC3)ccc2SC1N1CCOCC1 (stereo unspecified) ?
Choline anaer gr: inactive; Choline anaer gr early: 0.07

What do the screens show for `Cc1nnc(NC(=O)CSc2nc3c(=O)n(C)c(=O)n(C)c3n2C)s1`?
Choline anaer gr: inactive; Choline anaer gr early: -1.04

Results for Cc1cc(C)n(CC(=O)NCc2ccc3c(c2)OCO3)c(=O)c1S(=O)(=O)c1ccccc1 ?
Choline anaer gr: inactive; Choline anaer gr early: -0.55

Results for CS(=O)(=O)N1CCN(c2nc3ccccc3n3cccc23)CC1 ?
Choline anaer gr: inactive; Choline anaer gr early: -0.22

What do the screens show for `O=S(=O)(c1cn(Cc2noc(-c3ccc4c(c3)OCO4)n2)cn1)N1CCCCC1`?
Choline anaer gr: inactive; Choline anaer gr early: 0.75

What do the screens show for `O=C(Cn1c(=O)n(Cc2ccc3c(c2)OCO3)c(=O)c2oc3ccccc3c21)Nc1ccccc1F`?
Choline anaer gr: inactive; Choline anaer gr early: 0.75

What do the screens show for `CCN(CC)CCOC(=O)C(Cc1cccc2ccccc12)CC1CCCO1` (stereo unspecified)?
Choline anaer gr: inactive; Choline anaer gr early: 0.21

How did Cc1ccc(-c2cnnc(-n3nc(C)c4c3NC(=O)CC4c3ccccc3C)n2)cc1 (stereo unspecified) do in these assays?
Choline anaer gr: inactive; Choline anaer gr early: -0.22

How did CCN(CC)CCCNc1cc(-c2ccccc2)nc(C)n1 do in these assays?
Choline anaer gr: inactive; Choline anaer gr early: -1.28

Results for O=S(=O)(NC1CCN(c2ncnc3c2CCC3)C1)c1cccnc1 (stereo unspecified) ?
Choline anaer gr: inactive; Choline anaer gr early: 0.34

What do the screens show for `O=S1(=O)N=CN(c2cccc(F)c2)c2ncccc21`?
Choline anaer gr: inactive; Choline anaer gr early: 1.88

What do the screens show for `COc1cccc(NC2c3ccccc3C(=O)N2Cc2ccc3c(c2)OCO3)c1` (stereo unspecified)?
Choline anaer gr: inactive; Choline anaer gr early: 1.03

Results for CCOc1ccccc1-n1nnc(C(=O)Nc2ccc(S(N)(=O)=O)cc2)c1C ?
Choline anaer gr: inactive; Choline anaer gr early: -1.21

Results for COc1ccc(CN(C(=O)c2sc3ccccc3c2Cl)c2ccccn2)cc1OC ?
Choline anaer gr: inactive; Choline anaer gr early: 1.37

Results for CCN1CCn2cc(S(=O)(=O)N3CCCc4ccccc43)cc2C1=O ?
Choline anaer gr: inactive; Choline anaer gr early: -0.05

How did O=C(CSc1nc2ncccc2[nH]1)Nc1ccccc1F do in these assays?
Choline anaer gr: inactive; Choline anaer gr early: -3.4

How did O=C(Cc1ccc(NC2=NC3CS(=O)(=O)CC3S2)cc1)NCc1ccccc1Cl (stereo unspecified) do in these assays?
Choline anaer gr: inactive; Choline anaer gr early: -0.08

Compounds above with an aryl methoxy group, in the order listed:
Results for COc1ccc(-c2cc(C(F)(F)F)n3ncc(C(=O)NCc4c(C)nn(C)c4C)c3n2)cc1OC ?
Choline anaer gr: inactive; Choline anaer gr early: 3

What do the screens show for `COc1ccccc1-c1noc(CCCC(=O)Nc2cccnc2)n1`?
Choline anaer gr: inactive; Choline anaer gr early: 0.31

Results for COc1ccccc1N1CCN(C(=O)c2sc3ncccc3c2-n2cccc2)CC1 ?
Choline anaer gr: inactive; Choline anaer gr early: -0.12

How did COc1cc(NC(=O)c2ccc(S(=O)(=O)c3ccc(Br)cc3)nc2)cc(OC)c1 do in these assays?
Choline anaer gr: inactive; Choline anaer gr early: 2.75

What do the screens show for `COc1ccccc1-c1noc(-c2ccc[nH]c2=O)n1`?
Choline anaer gr: inactive; Choline anaer gr early: 0.57

What do the screens show for `COc1cccc(NC2c3ccccc3C(=O)N2Cc2ccc3c(c2)OCO3)c1` (stereo unspecified)?
Choline anaer gr: inactive; Choline anaer gr early: 1.03

Results for COc1ccc(CN(C(=O)c2sc3ccccc3c2Cl)c2ccccn2)cc1OC ?
Choline anaer gr: inactive; Choline anaer gr early: 1.37

Next section.
How did COc1ccc(-n2nnc3c(N4CCN(C(=O)COc5ccc(F)cc5)CC4)ncnc32)cc1 do in these assays?
Choline anaer gr: inactive; Choline anaer gr early: 0.18

How did O=C(NCc1cc(F)cc(F)c1)C1CCN(c2ncnc3c2oc2ccccc23)CC1 do in these assays?
Choline anaer gr: inactive; Choline anaer gr early: -0.34

What do the screens show for `C=CCNC(=O)c1cc2cc(OCC)ccc2n1C`?
Choline anaer gr: inactive; Choline anaer gr early: 0.02

What do the screens show for `COc1cccc(-c2nn(C)c3sc(C(=O)NCCCN4CCC(C)CC4)cc23)c1`?
Choline anaer gr: inactive; Choline anaer gr early: -1.39

What do the screens show for `O=C(Cn1nc2c3sccc3ncn2c1=O)Nc1ccc(Cl)cc1`?
Choline anaer gr: inactive; Choline anaer gr early: -0.26

How did CCSc1nn(CC(=O)Nc2cccc(F)c2)c(N)c1S(=O)(=O)c1ccccc1 do in these assays?
Choline anaer gr: inactive; Choline anaer gr early: -0.91

How did Cc1ccc2c(Cl)c(C(=O)Nc3onc4c3CCCC4)sc2c1 do in these assays?
Choline anaer gr: inactive; Choline anaer gr early: 0.27

How did CCOC(=O)c1sc2ccccc2c1S(=O)(=O)N1CCC(C(N)=O)(N2CCCCC2)CC1 do in these assays?
Choline anaer gr: inactive; Choline anaer gr early: 0.14

Results for COc1cc(Cl)cc2c1OC=CC(C(=O)Nc1nccs1)=C2 ?
Choline anaer gr: inactive; Choline anaer gr early: -2

How did COc1ccc(Cc2nnc3sc(-c4c[nH]c5ccccc45)nn23)cc1 do in these assays?
Choline anaer gr: inactive; Choline anaer gr early: 0.19

What do the screens show for `CCc1cc(C2CCCN2S(=O)(=O)c2ccccc2F)on1` (stereo unspecified)?
Choline anaer gr: inactive; Choline anaer gr early: 0.91

How did CCC(C)CCCC(=O)N[C@@H](CCN)C(=O)N[C@H](C(=O)N[C@@H](CCN)C(=O)N[C@H]1CCNC(=O)[C@H]([C@@H](C)O)NC(=O)[C@H](CCN)NC(=O)[C@H](CCN)NC(=O)[C@H](CC(C)C)NC(=O)[C@@H](CC(C)C)NC(=O)[C@H](CCN)NC1=O)[C@@H](C)O (stereo partly specified) do in these assays?
Choline anaer gr: inactive; Choline anaer gr early: -1.64

Results for CCOC(=O)c1cc(S(=O)(=O)N2CCCC2C(=O)N2CCCCC2)cn1C (stereo unspecified) ?
Choline anaer gr: inactive; Choline anaer gr early: -0.47

How did Cc1ccc(CS(=O)(=O)N2CCC(CN3CCCC(C)C3)CC2)cc1C (stereo unspecified) do in these assays?
Choline anaer gr: inactive; Choline anaer gr early: 0.16

What do the screens show for `Cc1ccc(CNC2=NCCNC23CCC(c2ccccc2)CC3)cc1` (stereo unspecified)?
Choline anaer gr: inactive; Choline anaer gr early: 0.06

What do the screens show for `COc1ccc2[nH]cc(CCN3CC(C(=O)Nc4ccc5c(c4)CCC5)CC3=O)c2c1` (stereo unspecified)?
Choline anaer gr: inactive; Choline anaer gr early: 0.04

How did CC1(C)CN(C(=O)C2CC2)c2ccc(S(=O)(=O)N3CCCCC3)cc21 do in these assays?
Choline anaer gr: inactive; Choline anaer gr early: 0.23

What do the screens show for `Cc1cccc(S(=O)(=O)N(C)CC2(C)CCOCC2)c1`?
Choline anaer gr: inactive; Choline anaer gr early: -0.59

What do the screens show for `CC(C)Cn1c(=O)c2ccc(C(=O)NC(C)C)cc2n2c(=O)n(CC(N)=O)nc12`?
Choline anaer gr: inactive; Choline anaer gr early: -0.8

What do the screens show for `Cc1cc(NS(=O)(=O)c2cccc(-c3noc(C)n3)c2)no1`?
Choline anaer gr: inactive; Choline anaer gr early: -0.32

How did CCCC(C(=O)Nc1ccc2c(c1)OCCO2)N1Cc2ccccc2C1=O (stereo unspecified) do in these assays?
Choline anaer gr: inactive; Choline anaer gr early: -0.52

What do the screens show for `Cc1cccc(C(=O)Nc2cccc(-c3ccc4ccccc4n3)c2)c1`?
Choline anaer gr: inactive; Choline anaer gr early: 0.64

How did Cc1nn(-c2nc3ccccc3[nH]2)c2c1C(c1ccccc1)CC(=O)N2 (stereo unspecified) do in these assays?
Choline anaer gr: inactive; Choline anaer gr early: 3.02

Some of the compounds tested; rates above refer to the full screens.
